# Ecoli rRNA inh: reduced GFP signal of wild-type E. coli, primary screen, bacterial rRNA inhibitor project, GFP/RFP fluorescence, OD600, single point; E. coli WT GFP vs humanized-ribosome RFP mutants, 24 h; hits give low values; DMSO median 0, no signal -100; GFP signal change (wild-type ribosome), % (concentration not given with the values); 350,000 compounds, 1.6% hits;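 active = significant combined selectivity score with lowered wild-type GFP, culture density cut under 30%, mutant RFP and density less affected; inactive = any of these conditions unmet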; also: one replicate is shown; some compounds called inactive have numbers as strong as hits
# HNF4A DNA FP: change in binding of human HNF4A to DNA, primary screen, biochemical, fluorescence polarization, FITC-DNA | 1 h | 360,000 compounds, 0.3% hits | AID 1224865, 2016 | activity change, % at 10 µM; in the data active = activity change above about 30%, passing the limit was not always enough;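 also: controls were the assay level and a saturating level of protein; the project sought stronger binding though the title names inhibitors; some compounds called inactive have numbers as strong as hits; positive values seem to mean higher polarization but the record does not say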
# Target sequence (P41235 whole entry, looked up): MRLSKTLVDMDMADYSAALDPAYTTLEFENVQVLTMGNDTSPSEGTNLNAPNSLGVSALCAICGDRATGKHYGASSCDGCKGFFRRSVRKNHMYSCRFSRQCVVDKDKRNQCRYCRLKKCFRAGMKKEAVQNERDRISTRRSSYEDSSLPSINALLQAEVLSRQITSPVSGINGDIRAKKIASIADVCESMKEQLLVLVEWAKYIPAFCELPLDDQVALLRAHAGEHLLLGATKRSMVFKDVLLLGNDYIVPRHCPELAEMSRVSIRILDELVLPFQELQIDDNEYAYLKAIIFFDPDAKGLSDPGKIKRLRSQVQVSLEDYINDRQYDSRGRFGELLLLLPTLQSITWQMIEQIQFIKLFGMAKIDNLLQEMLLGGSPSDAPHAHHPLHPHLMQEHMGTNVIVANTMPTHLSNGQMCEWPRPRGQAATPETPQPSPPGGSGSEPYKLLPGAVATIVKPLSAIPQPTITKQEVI
# E coli growth: E. coli growth inhibition, primary screen, OD600. Escherichia coli growth, 23 h; hits give low values. AID 1053175, 2014. OD600 absorbance (concentration not given with the values). 330,000 compounds, 0.21% hits;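 active = OD600 absorbance below the run mean of sample wells minus 3.6 SD, in any replicate, cut at about 0.56 in these data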;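 also: stock transfer was 300 nL into about 60 µL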
# MLL AF4-AF9 inh: inhibitors of AF4 peptide binding to AF9, primary screen, biochemical, AlphaScreen, biotin-AF4 peptide, FLAG-AF9, single point | Protein AF-9 (Homo sapiens), P42568 | inhibition, % at 10 µM | 350,000 compounds, 0.47% hits;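 active = every replicate reaching a set inhibition limit, whatever the replicate mean, cut at about 25% in these data; inconclusive = mean inhibition reaches that limit but some replicates miss it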;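 also: 0% = plate neutral control median and 100% = total signal loss; the record names both 10 and 1 µM as test concentration; the first replicate is given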
# Target sequence (P42568 whole entry, looked up): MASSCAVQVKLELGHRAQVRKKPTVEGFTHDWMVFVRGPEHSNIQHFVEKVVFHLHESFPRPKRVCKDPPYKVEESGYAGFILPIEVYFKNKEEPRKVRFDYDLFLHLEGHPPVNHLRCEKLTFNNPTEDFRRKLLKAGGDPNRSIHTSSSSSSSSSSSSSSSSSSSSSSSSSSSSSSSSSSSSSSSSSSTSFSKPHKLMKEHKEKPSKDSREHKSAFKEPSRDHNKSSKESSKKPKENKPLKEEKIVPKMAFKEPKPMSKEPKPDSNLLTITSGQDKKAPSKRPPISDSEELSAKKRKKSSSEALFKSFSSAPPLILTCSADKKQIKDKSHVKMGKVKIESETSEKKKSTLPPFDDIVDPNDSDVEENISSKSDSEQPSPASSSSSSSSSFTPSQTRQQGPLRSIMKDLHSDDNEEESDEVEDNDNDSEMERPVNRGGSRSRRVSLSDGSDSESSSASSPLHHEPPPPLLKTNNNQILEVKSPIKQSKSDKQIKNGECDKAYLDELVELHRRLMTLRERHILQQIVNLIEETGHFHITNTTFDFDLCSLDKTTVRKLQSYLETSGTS
# FGF22 binding: binders of human FGF22 protein, primary screen, FGF22 synaptogenesis inhibitor project, biophysical, thermal shift, single point; Fibroblast growth factor 22 (Homo sapiens), Q9HCT0; recombinant FGF22 thermal shift, SYPRO orange fluorescence; percent of sucrose octasulfate shift, DMSO zero; calls only at 9.99 µM; 340,000 compounds, 1.5% hits; AID 651658, 2012;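 active = melting point raised past a set limit in the mean and every replicate; inconclusive = no clear call; three in four hits are not shown here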
# Vif A3G: inhibitors of Vif binding to APOBEC3G peptide, primary screen, biochemical, TR-FRET, GST-Vif 1-94, biotin-A3G peptide, dose response retest (AID 1117319); one-dose inhibition, %; IC50 in µM for titrated hits; TR-FRET GST-Vif / biotin-A3G peptide binding; higher % means a stronger effect; test concentration not given here; strong numbers were not always called active; 260,000 compounds, 0.57% hits;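 active = above the screen mean plus three standard deviations and confirmed in dose response; inconclusive = results disagree or hit not tested in dose response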;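 also: Vif residues 1-94 fused to GST binding biotinylated APOBEC3G peptide 110-148; 0% = full assay without inhibitor and 100% = GST in place of GST-Vif; retest series ran down from 100 µM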
# ALR H2O2 inh: inhibitors of human ALR sulfhydryl oxidase, primary screen, biochemical, H2O2 detection, HRP-luminol luminescence, single point; purified ALR, DTT oxidation; AID 485317, 2010; FAD-linked sulfhydryl oxidase ALR (Homo sapiens), P55789; 290,000 compounds, 3.8% hits; inhibition, % (concentration not given with the values);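 active = mean and each replicate at 75% or more; inconclusive = only one of the two met; inactive = neither met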;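 also: stock transfer was 7.5 nL into about 7.5 µL; 0% = neutral wells and 100% = wells with inactivated enzyme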
# Ecoli rRNA inh OD600: also measured in Ecoli rRNA inh; calls as there; OD600 change, %; measured here: OD600 growth;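 optical density of the mix in the first replicate; 0 = DMSO median and -100 = no signal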
# Ecoli rRNA inh RFP: further read-out of Ecoli rRNA inh, marked with its call; RFP signal change, %; measured here: RFP humanized mutant strains;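 first replicate; 0 = DMSO median and -100 = no signal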
# * = called active by the depositor; i = inactive; ? = inconclusive; · = no result given; & = joins results of further samples.
SMILES,Ecoli rRNA inh,Ecoli rRNA inh OD600,Ecoli rRNA inh RFP,HNF4A DNA FP,E coli growth,MLL AF4-AF9 inh,FGF22 binding,Vif A3G,ALR H2O2 inh
CO[C@@H]1CN(C)C(=O)c2cc(NC(=O)NC(C)C)ccc2OC[C@@H](C)N(Cc2ccccc2)C[C@H]1C,-5,-18,-2.5,·,·,2.8,i,·,·
CC(=O)Nc1ccc(NC(=O)CN(C)S(=O)(=O)c2ccc3nc(C)sc3c2)cc1,7,5,-3.6,2.3,0.74,-3.5,i,5%,-6
CC(C)N1CCC2(CC1)N=C(c1ccc3c(c1)OCO3)CC(c1cc(Cl)ccc1O)N2 (stereo not drawn),·,·,·,1.4,0.61,·,·,-3%&16%,20
C/C=C/c1cnc2c(c1)C(=O)N([C@@H](C)CO)C[C@H](C)[C@@H](CN(C)C(=O)Cc1cccnc1)O2,2,6,-1.1,·,·,-1.3,i,·,·
C[C@@H]1CCCCO[C@H](CN(C)CC2CCCCC2)[C@H](C)CN([C@@H](C)CO)C(=O)c2cc(NC(=O)CCCCCC(=O)Nc3ccccc3N)ccc2O1,1,3,1.1,·,·,-2.4,i,·,·
COc1ccc(NC(=O)c2cc(=O)c3ccccc3o2)cn1,·,·,·,-4.3,0.73,·,·,2%,-5
CN1CCc2c(sc3c2C(=O)NC(c2ccc(-c4ccc(Cl)cc4)o2)N3)C1 (stereo not drawn),·,·,·,31,0.65,1.5,i,9%,91*
CN1CCN(S(=O)(=O)c2cccc(C(=O)NCCC3=CCCCC3)c2)CC1,-2,-2,-1.6,1.6,0.62,-19,i,-5%,7
COc1ccc(C(=O)c2ccc(OC)c(Br)c2)cc1Br,7,9,-8.3,0.8,0.66,-6.1,i,·,·
CC(C)NC(=O)N[C@@H]1CC[C@@H](CCn2cc(-c3ccc(F)cc3)nn2)O[C@H]1CO,-1,-2,0.2,·,·,-0.4,i,·,·
Cc1ccc(C)c(Nc2c([N+](=O)[O-])c(=O)oc3ccccc23)c1,-51,-75,-11,-4.7,0.67,5.9,i,-10%,-1
Cc1ccccc1CN(C)C[C@H]1OCc2cn(nn2)CCCC(=O)N([C@@H](C)CO)C[C@H]1C,2,3,-2.6,·,·,0.6,i,·,·
C[C@H](CO)N1C[C@H](C)[C@@H](CN(C)Cc2cncnc2)Oc2ncc(-c3ccc(C#N)cc3)cc2C1=O,5,5,2.2,·,·,-4.0,i,·,·
O=C(NCCC(=O)N1CCCCCCC1)c1ccc(Cl)cc1,-3,-4,-2.3,-0.4,0.69,-6.9,i,2%,-1
Cc1cccc(S(=O)(=O)N[C@@H]2CC[C@@H](CCn3cc(-c4ccccn4)nn3)O[C@H]2CO)c1,-2,2,0.8,·,·,-0.3,i,·,·
CCN1CCN(Cc2ccc(NC(=O)c3ccc(C)c(NC(=O)C(=O)c4c[nH]c5ccccc45)c3)cc2C(F)(F)F)CC1,-22&-9,-63&-17,-7.4&15,3.5&1.8&0.7,0.65,15&17,i,1%,18&-4
COc1ccc(-n2ncc3c(SCC(=O)N4CCN(c5ccccc5OC)CC4)ncnc32)cc1,·,·,·,-1.6,0.69,·,·,-3%,·
O=C(c1ccc(Oc2ccc([N+](=O)[O-])cc2Cl)cc1)N1CCCC1,-5,-7,0.2,0.5,0.66,-3.4,i,-2%,-11
Cc1ccc(-c2csc(C(O)c3ccccc3)n2)cc1C (stereo not drawn),-26,-36,-12,7.5,·,-6.6,i,·,·
O=C(CN1C(=O)c2cccnc2Oc2ccc(Cl)cc21)N1CCCCCC1,-1,3,1.1,-1.7,0.65,1.5,i,-11%,-1

# Gathered by group, the entries above containing an aryl methoxy group.
SMILES,Ecoli rRNA inh,Ecoli rRNA inh OD600,Ecoli rRNA inh RFP,HNF4A DNA FP,E coli growth,MLL AF4-AF9 inh,FGF22 binding,Vif A3G,ALR H2O2 inh
COc1ccc(NC(=O)c2cc(=O)c3ccccc3o2)cn1,·,·,·,-4.3,0.73,·,·,2%,-5
COc1ccc(C(=O)c2ccc(OC)c(Br)c2)cc1Br,7,9,-8.3,0.8,0.66,-6.1,i,·,·
COc1ccc(-n2ncc3c(SCC(=O)N4CCN(c5ccccc5OC)CC4)ncnc32)cc1,·,·,·,-1.6,0.69,·,·,-3%,·

# The list goes on.
SMILES,Ecoli rRNA inh,Ecoli rRNA inh OD600,Ecoli rRNA inh RFP,HNF4A DNA FP,E coli growth,MLL AF4-AF9 inh,FGF22 binding,Vif A3G,ALR H2O2 inh
CC(C)CSc1oc(-c2ccco2)nc1S(=O)(=O)c1ccccc1,9,9,-1.2,3.5,·,-2.6,i,30%,·
CCn1c(SCC(=O)OC)nc2sc3c(c2c1=O)CC(C)(C)OC3,-1,0,4.1,-1.4,0.68,-2.3,i,0%,-3
COc1ccc(C(C)C)cc1S(=O)(=O)NC1CCCC1,-22,-19,4.2,0.0,0.7,0.7,i,·,-6
COCC1CCN(C(=O)c2ccc3oc(C(C)C)nc3c2)C1 (stereo not drawn),2,1,-2.8,-1.9,·,1.0,i,-3%,·
C=CCNC(=S)NC1CC(C)(C)NC(C)(C)C1,·,·,·,-2.9,0.7,-2.7,i,-16%,-1
O=C(c1cc2ccccc2cc1O)N1CCCC(C(F)(F)F)C1 (stereo not drawn),-8,-22,0.9,-6.7,0.65,2.3,i,·,24
CC12CC(NC(=O)N1CCc1ccccc1)c1ccccc1O2 (stereo not drawn),·,·,·,2.7,0.71,·,·,-4%,0
O=C(CN(C(=O)c1ccccc1)C(=O)c1ccccc1)OCc1ccccc1,-9,-25,-0.9,-0.2,·,-2.3,i,-7%,·
NC(COCc1ccccc1)c1csc(Nc2ccccn2)n1 (stereo not drawn),8,9,0.9,5.3,·,5.6,i,·,·
CCNc1c(C(=O)O)ccc2c1C(=O)c1ccccc1C2=O,·,·,·,-0.6,0.66,·,·,32%,·
CC12CCC(C(=O)Nc3nc4ccccc4s3)(OC1=O)C2(C)C (stereo not drawn),0,-4,0.3,2.7,0.68,0.1,i,1%,0
CN(CC(=O)NCCC1=CCCCC1)S(=O)(=O)c1ccc2c(c1)CCC(=O)N2,-1,0,-2.0,2.1,0.76,3.7,i,-2%,-5
COc1ccc(S(=O)(=O)NN(C)C)cc1N(C)S(=O)(=O)c1ccc(Cl)cc1,-1,-12,-1.9,2.7,0.67,-1.4,i,5%,46
C/C=C/c1cnc2c(c1)C(=O)N([C@H](C)CO)C[C@@H](C)[C@@H](CN(C)S(=O)(=O)c1cn(C)cn1)O2,6,10,-3.7,·,·,2.0,i,·,·
O=C(CCC(=O)c1ccc(Cl)cc1)OCC(=O)c1ccccc1,·,·,·,1.9,0.66,·,·,1%,-3
CNc1cncc(-c2cccc(NS(C)(=O)=O)c2)n1,1,3,-3.8,1.8,·,-2.0,i,·,·
Cc1ccc(S(=O)(=O)N(C)C[C@H]2Oc3cc(C#CC4CCCC4)ccc3S(=O)(=O)N([C@H](C)CO)C[C@H]2C)cc1,7&6,-3&14,3.0&-0.3,3.1,·,-1.1&-14&2.2,i,·,·
Cc1cc(C(=O)Nc2ccc(C(=O)O)cc2)c(-c2ccccc2)o1,·,·,·,1.1,0.7,·,·,1%,0
Cc1onc(-c2ccccc2Cl)c1C(=O)N(C)C1CCCCC1,-13,-17,-4.8,1.9,0.68,-0.4,i,16%,·
COc1ccc(C2=NOC(Cn3nc(-c4ccccc4)cc3C(=O)NCc3cccc(C(F)(F)F)c3)C2)cc1 (stereo not drawn),·,·,·,2.8,0.7,·,·,·,-3
CC1(C)C([N+](=O)[O-])C(c2ccc(O)cc2)NC(c2ccc(O)cc2)C1[N+](=O)[O-] (stereo not drawn),-7,-11,2.5,5.5,0.69,3.9,i,-7%,3
CCC(NC(=O)c1cc(COc2c(F)cccc2F)on1)c1ccncc1 (stereo not drawn),·,·,·,2.2,0.7,·,·,0%,-12
Oc1ccc(/C=N/Nc2ncnc3c2ncn3Cc2ccccc2)cc1O,-35,-27,-21,-11,·,19,i,?,96*
Oc1ccc2ccccc2c1/C=N/n1cnnc1,·,·,·,-2.0,·,·,·,?,15
COc1ccc(/C=C/C(=O)N2CCOCC2)cc1OC,5,12,5.6,0.8,0.68,-0.5,i,·,-4
O=C(CN1CCN(S(=O)(=O)c2ccc(Br)cc2)CC1)N/N=C/c1ccccc1C(=O)O,4,14,-0.7,1.4,·,-0.5,i,·,·
O=C1c2ccccc2C(O)(Cc2ccccc2)N1Cc1ccco1 (stereo not drawn),-1,5,2.0,-2.9,0.66,7.1,i,10%,·
O=C(O)c1cccc(NS(=O)(=O)c2ccc(NC(=O)c3ccco3)cc2)c1,11,-1,1.8,-6.1,0.66,-2.4,i,18%,-1
Cc1c(C(=O)O)sc(S(=O)(=O)N2CCN(C(=O)Cc3ccccc3)CC2)c1C(=O)O,16,18,-0.5,-1.3,0.68,-9.7,i,2%,·
CCCSc1ccc([C@H]2N[C@@](CC(C)C)(C(=O)OC)[C@H]3C(=O)N(CC)C(=O)[C@@H]23)cc1,3,3,-10.0,-1.0,·,-2.4,i,·,2
CC(C)CNC(=O)c1ccc(Cl)c(NC(=O)COc2ccccc2)c1,·,·,·,·,0.67,·,·,11%,-8
C[C@H](CO)N1C[C@H](C)[C@H](CN(C)Cc2ccc(C(=O)Nc3ccccc3N)cc2)Oc2ccc(NS(=O)(=O)c3ccc(F)cc3)cc2CC1=O,2,-4,1.6,·,·,3.3,i,·,·
COc1ccc(C)cc1S(=O)(=O)NC1CCCCC1,·,·,·,4.0,0.68,·,·,5%,-25
COc1cccc(NC(=O)Nc2ccc3c(c2)C(=O)N(C)C[C@@H](OC)[C@@H](C)CN[C@H](C)CO3)c1,-1,-7,-0.4,·,·,4.7,i,·,·
CCc1cccc2[nH]c3cc([N+](=O)[O-])ccc3c12,-7,-22,-5.5,-0.8,0.7,0.4,i,-20%,2
Cc1noc(C)c1NC(=O)N(C)C[C@H]1Oc2ncc(C#CC3CC3)cc2C(=O)N([C@@H](C)CO)C[C@H]1C,1,-9,-1.3,·,·,-0.1,i,·,·
C[C@H](CO)N1C[C@H](C)[C@H](CN(C)C(=O)Nc2ccc(C(F)(F)F)cc2)OCCCC[C@H](C)Oc2ccc(NS(=O)(=O)c3cn(C)cn3)cc2C1=O,-57,-78,-21,·,·,0.9,i,·,·
O=C(C[C@@H]1C[C@@H]2c3cc(NC(=O)CC4CC4)ccc3O[C@@H]2[C@@H](CO)O1)NCC1CC1,0,4,0.6,·,·,-0.6,i,·,·
CCCS(=O)(=O)N1CCCC(C(=O)NCc2cccnc2)C1 (stereo not drawn),14,16,0.3,0.1,0.75,·,·,0%,-6
CCN(CC(=O)Nc1ccccc1C(=O)OC)S(=O)(=O)c1ccc(OC)cc1,·,·,·,0.9,0.7,·,·,7%,-2
COc1ccccc1N1CCN(C(=O)C2CCN(S(=O)(=O)c3ccccc3)CC2)CC1,-2,3,3.0,-3.3,0.7,-1.1,i,-6%,12
O=S(=O)(c1ccc(N2CC=C(c3ccccc3)CC2)nc1)N1CCCC1,·,·,·,0.8,0.74,·,·,3%,-1
Cn1c(=O)n(CC(=O)NC2CCCCC2)c(=O)c2ccccc21,·,·,·,1.3,0.71,·,·,2%,3

# Screens from PubChem BioAssay.

# An excerpt; the hit share may differ from the screen's.
